Compound activity as filed in PubChem.
Polio RdRp inh: poliovirus RdRp elongation inhibitors, primary screen, biochemical, fluorescence polarization, total intensity; poliovirus polymerase elongation; active compounds read low; Genome polyprotein (Poliovirus type 1 (strain Mahoney)), P03300; % elongation, % (compound at 16.7 µg/mL); 150,000 tested, 0.66% active; in the data active = % elongation below about 90%; note: some results filed as inactive read as strong as hits
Target sequence (P03300 1749-2209 limits assumed): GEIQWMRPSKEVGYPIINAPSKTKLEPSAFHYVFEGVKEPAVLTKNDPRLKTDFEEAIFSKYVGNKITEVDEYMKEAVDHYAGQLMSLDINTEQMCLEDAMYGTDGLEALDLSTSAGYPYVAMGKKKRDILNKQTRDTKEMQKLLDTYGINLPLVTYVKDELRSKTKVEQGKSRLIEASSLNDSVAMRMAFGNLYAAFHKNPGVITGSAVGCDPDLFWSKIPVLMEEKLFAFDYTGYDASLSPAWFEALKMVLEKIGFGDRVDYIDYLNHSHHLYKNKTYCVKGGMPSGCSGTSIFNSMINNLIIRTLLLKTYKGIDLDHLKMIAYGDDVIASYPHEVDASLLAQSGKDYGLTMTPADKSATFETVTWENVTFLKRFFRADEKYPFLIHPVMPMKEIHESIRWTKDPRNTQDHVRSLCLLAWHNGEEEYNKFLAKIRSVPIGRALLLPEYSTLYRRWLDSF
Polio RdRp inh intensity: further read-out of Polio RdRp inh, marked with its call; % elongation; measured here: total intensity read-out; formula for this scale not given here;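 total fluorescence in place of polarization; lower means less elongation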
Active calls of the source: *. Not all compounds are listed; the hit share may differ from the screen's.

[1] CCC(=O)N1CCc2cc(Br)cc(S(=O)(=O)N3CCN(c4ccc(C(C)=O)cc4)CC3)c21
[2] Cc1cccc(C)c1Nc1c(-c2ccsc2)nc2cccc(C)n12
[3] CC(=O)Nc1nonc1-c1nnc(SCC(=O)Nc2ccccc2Cl)n1C
[4] Cc1ccc(-c2nnc(Nc3ccc(O)cc3)c3ccccc23)cc1S(=O)(=O)N1CCCCC1
[5] O=C(NCCn1cc(SCc2ccc(F)cc2)c2ccccc21)c1c(F)cccc1F
[6] Cc1ccc(NC(=O)C(=O)NCC(c2ccc3c(c2)OCO3)N2CCOCC2)c(C)c1 (configuration not stated)
[7] CCCN1C(C(=O)c2ccccc2)=C(OC(=O)COc2ccccc2)c2ccccc2S1(=O)=O
[8] CCOc1ccc(-c2nnc(SCC(=O)Nc3cc(C)ccc3OC)o2)cc1

assay / compound | 1 | 2 | 3 | 4 | 5 | 6 | 7 | 8
Polio RdRp inh | 105.0 | 104.0 | 109.0 | 103.0 | 111.0 | 112.0 | 102.0 | 109.0
Polio RdRp inh intensity | 108.0 | 104.0 | 111.0 | 104.0 | 107.0 | 112.0 | 110.0 | 110.0

The final 4 compounds of the section above are carried over, then new ones follow.
[5] O=C(NCCn1cc(SCc2ccc(F)cc2)c2ccccc21)c1c(F)cccc1F
[6] Cc1ccc(NC(=O)C(=O)NCC(c2ccc3c(c2)OCO3)N2CCOCC2)c(C)c1 (configuration not stated)
[7] CCCN1C(C(=O)c2ccccc2)=C(OC(=O)COc2ccccc2)c2ccccc2S1(=O)=O
[8] CCOc1ccc(-c2nnc(SCC(=O)Nc3cc(C)ccc3OC)o2)cc1
[9] COc1ccc(-c2cc(C(F)(F)F)nc(SCCC(=O)Nc3ccc(O)cc3)n2)cc1
[10] CCOC(=O)c1ccc(CN(Cc2ccc(F)cc2)S(=O)(=O)c2ccc(F)c(C(=O)Nc3c(C)cccc3C)c2)cc1
[11] CCOC(=O)Cn1c(=O)n(C2CCCCC2)c2nc(-c3ccc(C(C)C)cc3)nc(C(N)=O)c21
[12] COc1ccccc1NC(=O)c1cc2c(C)nn(-c3ccccc3)c2s1
[13] COC(=O)c1ccc(OCC2c3cc(OC)c(OC)cc3CCN2C(=O)Cc2ccc(OC)cc2)cc1 (configuration not stated)
[14] COc1ccc(OC)c(NC(=O)c2cc(CN3CCCC3)on2)c1
[15] Clc1ccc(-c2nc3c4cnn(-c5ccccc5Br)c4ncn3n2)c(Cl)c1
[16] COc1cccc(C(=O)Nc2ccc3oc(-c4cccc5c(Br)cccc45)nc3c2)c1

assay / compound | 5 | 6 | 7 | 8 | 9 | 10 | 11 | 12 | 13 | 14 | 15 | 16
Polio RdRp inh | 111.0 | 112.0 | 102.0 | 109.0 | 107.0 | 103.0 | 105.0 | 104.0 | 110.0 | 100.0 | 117.0 | 107.0
Polio RdRp inh intensity | 107.0 | 112.0 | 110.0 | 110.0 | 108.0 | 99.0 | 108.0 | 109.0 | 110.0 | 103.0 | 117.0 | 109.0

[17] Cc1ccc(CN(C(=O)COc2ccc(C(C)C)cc2)C2CCS(=O)(=O)C2)o1 (configuration not stated)
[18] Cc1ccc(C)c(CNC(=O)CN2C(=O)CSc3ccc(S(=O)(=O)N(C)C)cc32)c1
[19] NC(=O)c1ccccc1NC(=O)CN1c2ccccc2S(=O)(=O)c2ccccc21
[20] COc1ccc2nc3sc(C(=O)NCCc4ccc(Cl)cc4)cc3cc2c1
[21] CCc1ccc(CNC(=O)c2c(C)oc3ncnc(N4CCOCC4)c23)cc1
[22] Cc1ccc(CCNC(=O)c2c(C)oc3ncn(CC(C)C)c(=O)c23)cc1
[23] Cc1cc(C)c2c(=O)c3c(oc2c1)C(=O)N(Cc1ccc(F)cc1)C3c1cccc(O)c1 (configuration not stated)
[24] Cc1ccc(S(=O)(=O)c2[nH]c(-c3ccccc3)nc2SCCC(=O)O)cc1

assay / compound | 17 | 18 | 19 | 20 | 21 | 22 | 23 | 24
Polio RdRp inh | 111.0 | 111.0 | 112.0 | 113.0 | 109.0 | 100.0 | 111.0 | 110.0
Polio RdRp inh intensity | 109.0 | 116.0 | 115.0 | 113.0 | 95.0 | 96.0 | 114.0 | 111.0

[25] Cc1ccc(-n2nnnc2CNC(=O)c2cc(C(F)(F)F)cc(C(F)(F)F)c2)cc1C
[26] COc1ccc(-c2cc(C(F)(F)F)n3nc(C(=O)Nc4cc(Cl)cc(Cl)c4)cc3n2)cc1
[27] COC(=O)c1c(-c2cccs2)csc1NC(=O)c1ccc(C(C)(C)C)cc1
[28] CCOc1ccccc1NC(=O)c1c(C)cc(C)nc1SCC(=O)c1cccc(OC)c1
[29] COc1cc(OC)c(NC(=O)Cn2cnc3sc(C)c(S(=O)(=O)N4CCN(C)CC4)c3c2=O)cc1Cl
[30] COc1ccccc1CN1CCC(CNC(=O)c2cnn(-c3ccc(Cl)cc3)c2C2CCN(C(=O)OC(C)(C)C)CC2)CC1
[31] CCC(=O)C1=C(c2ccc(OC)c(OC)c2)N(C(=O)CC)n2c(nnc2-c2ccc(C)cc2)S1
[32] CC(=O)N1CCCC1c1nc2ccccc2n1Cc1c(F)cccc1Cl (configuration not stated)

assay / compound | 25 | 26 | 27 | 28 | 29 | 30 | 31 | 32
Polio RdRp inh | 102.0 | 108.0 | 77.0* | 108.0 | 104.0 | 112.0 | 109.0 | 110.0
Polio RdRp inh intensity | 108.0 | 112.0 | 77.0* | 99.0 | 103.0 | 98.0 | 108.0 | 118.0

[33] CCc1ccc(OCC(=O)N(Cc2ccco2)Cc2ccccc2Cl)cc1
[34] Cc1cccc(NC(=O)C(=O)NCCCN2CCOCC2)c1
[35] CC(=O)c1cccc(NC(=O)c2cc(C)nc3c2c(C)nn3-c2cccc(Cl)c2C)c1
[36] CCN(C(=O)Cn1c(SCC(=O)Nc2ccc(OC)cc2)nc2ccccc21)c1cccc(C)c1
[37] COc1ccc(OC)c(C2C(C(=O)Nc3ccccc3OC)=C(C)Nc3c(C(=O)Nc4ccc(F)cc4)cnn32)c1 (configuration not stated)
[38] Cc1sc2ncn(CC(=O)Nc3ccc(C(F)(F)F)cc3)c(=O)c2c1S(=O)(=O)N1CCN(C)CC1
[39] CCCCS(=O)CC(O)CSc1nc(-c2ccc(OC)cc2)cc(-c2ccccc2)c1C#N (configuration not stated)
[40] CCOc1ccc(N(C(=O)CC(C)C)S(=O)(=O)c2ccc3c(c2)oc(=O)n3C)cc1

assay / compound | 33 | 34 | 35 | 36 | 37 | 38 | 39 | 40
Polio RdRp inh | 104.0 | 107.0 | 108.0 | 108.0 | 119.0 | 101.0 | 105.0 | 106.0
Polio RdRp inh intensity | 107.0 | 107.0 | 108.0 | 106.0 | 108.0 | 102.0 | 110.0 | 119.0

[41] O=C(NCCCN1CCN(c2cccc(Cl)c2)CC1)c1nnc(Cc2ccc(F)cc2Cl)o1
[42] CCc1ccccc1NC(=O)C(=O)NCCCN1CCOCC1
[43] Cc1cccc(NC(=O)N2CC(=O)Nc3sc4c(c3C2c2ccccc2)CCCC4)c1C (configuration not stated)
[44] CCC(=O)N1CCc2cc(S(=O)(=O)NC(CC(C)C)C(=O)NCc3ccc(F)cc3)ccc21 (configuration not stated)
[45] Cc1cc(N2CCC(C(=O)Nc3ccc(Cl)cc3)CC2)n2nc(C)c(-c3ccc(Cl)cc3)c2n1
[46] Cc1ccc(NC(=O)Cn2cc(C(=O)c3ccccc3)c3ccccc32)c(C)c1
[47] COc1cccc(C(=O)Nc2nc(-c3nnn(-c4cccc(Cl)c4C)c3C)ns2)c1
[48] CC(C)(C)C1CCc2onc(C(=O)Nc3sc4c(c3C(N)=O)CCCC4)c2C1 (configuration not stated)

assay / compound | 41 | 42 | 43 | 44 | 45 | 46 | 47 | 48
Polio RdRp inh | 107.0 | 105.0 | 105.0 | 102.0 | 107.0 | 99.0 | 106.0 | 79.0*
Polio RdRp inh intensity | 108.0 | 109.0 | 113.0 | 106.0 | 111.0 | 105.0 | 114.0 | 79.0*

[49] Cc1nn(CC(=O)N2CCC(C)CC2)c(=O)c2cc3sccc3n12
[50] Cc1ccc(-n2nc3ccc(NC(=O)c4cc5ccccc5o4)cc3n2)cc1
[51] COc1ccc(N2CC(NC(=O)/C=C\c3ccc4c(c3)OCO4)CC2=O)cc1 (configuration not stated)
[52] O=C(Nc1ccc(F)c(Cl)c1)C1CCN(S(=O)(=O)c2ccc3[nH]c(=O)ccc3c2)CC1
[53] COc1ccccc1C(=O)Nc1cccc(C(=O)OCc2cc(=O)n3nc(C4CC4)sc3n2)c1
[54] Cc1ccc(COC(=O)c2ccc(-c3nnn(Cc4ccc(C)cc4)n3)cc2)cc1
[55] Cc1cc(C)cc(C(=O)Nc2nnc3n2CCS3)c1
[56] CCOC(=O)CSc1nc2sc3c(c2c(=O)n1-c1ccc(OC)cc1)CC(C(C)C)OC3 (configuration not stated)

assay / compound | 49 | 50 | 51 | 52 | 53 | 54 | 55 | 56
Polio RdRp inh | 106.0 | 109.0 | 108.0 | 110.0 | 110.0 | 107.0 | 107.0 | 109.0
Polio RdRp inh intensity | 109.0 | 115.0 | 107.0 | 114.0 | 113.0 | 109.0 | 110.0 | 114.0

[57] Cc1ccc(CNC(=O)c2cnn3c(C)c(Cc4c(F)cccc4Cl)c(C)nc23)cc1
[58] COc1ccc(OC)c(NC(=O)c2cnn(-c3ccc(C)cc3)c2C2CCNCC2)c1
[59] CCCCCSc1nnc2c(n1)[nH]c1c(C)cccc12
[60] COc1ccc(CCC(=O)NC2CC(=O)N(c3ccc(C)c(C)c3)C2)cc1 (configuration not stated)
[61] CC(C)OCCCNC(=O)CN1C(=O)COc2ccc(S(=O)(=O)N3CCCCCC3)cc21
[62] Brc1cccc(-c2nnn3c2nc(NC2CCCCC2)c2ccccc23)c1
[63] c1ccc(-c2nnc(CN3CCN(c4ccccn4)CC3)o2)cc1
[64] Cc1coc2cc3oc(=O)c(CCC(=O)NCc4ccccc4Cl)c(C)c3cc12

assay / compound | 57 | 58 | 59 | 60 | 61 | 62 | 63 | 64
Polio RdRp inh | 111.0 | 101.0 | 103.0 | 106.0 | 114.0 | 106.0 | 108.0 | 99.0
Polio RdRp inh intensity | 110.0 | 102.0 | 106.0 | 104.0 | 119.0 | 111.0 | 113.0 | 104.0

[65] CCOC(=O)c1ccc(NC(=O)C(CC)Sc2nnc3c4ccccc4n(C)c3n2)cc1 (configuration not stated)
[66] CCc1cc(C(=O)NCc2ccc(F)cc2)no1
[67] O=C(Nc1ccccc1C(F)(F)F)c1noc2c1CCCCC2
[68] Clc1cccc(-c2csc(-c3nc(-c4ccc(Br)s4)cs3)n2)c1
[69] Cc1cc(C)n(-c2nc(C)c(C)c(=O)n2CC(=O)Nc2ccc(Cl)c(Cl)c2)n1
[70] CCCCNc1oc(-c2ccc(COc3ccccc3C)o2)nc1C#N
[71] COC(=O)c1ccc(NC(=O)N2CCC(CN3CCc4ccccc4C3)CC2)cc1
[72] CCCCNc1nc2c(-c3cccc(Br)c3)nnn2c2ccccc12

assay / compound | 65 | 66 | 67 | 68 | 69 | 70 | 71 | 72
Polio RdRp inh | 107.0 | 102.0 | 106.0 | 107.0 | 106.0 | 109.0 | 102.0 | 105.0
Polio RdRp inh intensity | 104.0 | 107.0 | 109.0 | 111.0 | 97.0 | 105.0 | 93.0 | 111.0

Looked up one by one from above, two records:
[70] CCCCNc1oc(-c2ccc(COc3ccccc3C)o2)nc1C#N
[71] COC(=O)c1ccc(NC(=O)N2CCC(CN3CCc4ccccc4C3)CC2)cc1

assay / compound | 70 | 71
Polio RdRp inh | 109.0 | 102.0
Polio RdRp inh intensity | 105.0 | 93.0

Next compounds follow:
[73] CCOC(=O)CSc1nc2c(sc3cccc(F)c32)c(=O)n1Cc1ccc(OC)cc1
[74] CCc1nnc(NC(=O)c2nc(SCc3cccc(C)c3)ncc2Cl)s1
[75] CCCOc1cccc(C2c3c(-c4ccccc4O)n[nH]c3C(=O)N2Cc2ccco2)c1 (configuration not stated)
[76] CSc1ncc(C(=O)N2CCN(c3cc(Cl)ccc3C)CC2)c(C)n1
[77] O=C(Cn1c(=O)nc(-c2ccccc2)c2ccccc21)NCc1ccc(Cl)cc1
[78] Cc1cccc(CNC(=O)CN2C(=O)CCCc3ccccc32)c1
[79] CCOc1ccc(CN2CCN(Cc3ccc4c(c3)c3ccccc3n4CC)CC2)cc1
[80] COc1ccc(C(=O)N(Cc2cc(OC)c(OC)c(OC)c2)C2CCS(=O)(=O)C2)cc1Cl (configuration not stated)

assay / compound | 73 | 74 | 75 | 76 | 77 | 78 | 79 | 80
Polio RdRp inh | 104.0 | 102.0 | 106.0 | 107.0 | 108.0 | 105.0 | 102.0 | 111.0
Polio RdRp inh intensity | 112.0 | 105.0 | 98.0 | 121.0 | 104.0 | 112.0 | 102.0 | 112.0

[81] Cc1cccc(C(=O)Nc2nc(-c3nnn(-c4cc(F)ccc4F)c3C)ns2)c1
[82] Cc1cc(-n2c(/C=C/c3cccs3)nc3ccccc3c2=O)ccc1Br
[83] COc1cc2nc(NCCC(C)C)n3nc(-c4ccccc4)nc3c2cc1OC
[84] NCc1csc(-c2ccccc2)n1
[85] Cc1ccc(CNC(=O)c2oc3ccc(S(=O)(=O)N4CCC(C)CC4)cc3c2C)cc1
[86] CCOc1ccc(NC(=O)Cn2c(=O)n(CC3CCC(C(=O)NCCc4ccccc4)CC3)c(=O)c3ccccc32)cc1 (configuration not stated)
[87] O=C(c1ccccc1)n1nc(-c2ccccc2)nc1NCc1ccc(F)cc1
[88] CCCC(=O)Nc1ccc(NC(=O)c2sc3ccccc3c2Cl)cc1

assay / compound | 81 | 82 | 83 | 84 | 85 | 86 | 87 | 88
Polio RdRp inh | 113.0 | 107.0 | 100.0 | 102.0 | 109.0 | 109.0 | 102.0 | 109.0
Polio RdRp inh intensity | 103.0 | 101.0 | 98.0 | 105.0 | 110.0 | 110.0 | 103.0 | 107.0

[89] Cc1ccc(NC(=O)CSc2nc3ccccc3c(=O)n2CCC(=O)NC2CCCCC2)cc1C
[90] Cc1cn2c(=O)c(S(=O)(=O)Nc3ccc(N4CCOCC4)cc3)c(C)nc2s1
[91] CCOc1ccc(CCNc2nc3c(-c4ccc(C)cc4)nnn3c3ccccc23)cc1OCC
[92] O=C(NCc1ccccc1Cl)c1cnc2sc(N3CCOCC3)nn2c1=O

assay / compound | 89 | 90 | 91 | 92
Polio RdRp inh | 113.0 | 107.0 | 105.0 | 98.0
Polio RdRp inh intensity | 112.0 | 109.0 | 108.0 | 101.0
